N370S GC: qHTS Assay for Inhibitors and Activators of N370S glucocerebrosidase as a Potential Chaperone Treatment of Gaucher Disease | Lysosomal acid glucosylceramidase (Homo sapiens), P04062 | N370S GC spleen homogenate, 4MU-glucoside fluorescence | Potency, µM (series often up to 59.4 µM), for the others: at the highest dose activity change, negative = inhibition, usual class: inhibitors | 330,000 compounds, 0.092% hits;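 also: 0% = full enzyme activity and -100% = no enzyme basal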
KAT2A inh: qHTS Assay for Inhibitors of GCN5L2; Histone acetyltransferase KAT2A (Homo sapiens), Q92830; GCN5L2 HAT assay, ThioGlo1 CoA-SH fluorescence; Potency, µM (series often up to 58.9 µM), inactives show at the highest dose activity change, negative = inhibition, actives largely listed as inhibitors; 390,000 compounds, 0.21% hits
Target sequence (Q92830 whole entry, looked up): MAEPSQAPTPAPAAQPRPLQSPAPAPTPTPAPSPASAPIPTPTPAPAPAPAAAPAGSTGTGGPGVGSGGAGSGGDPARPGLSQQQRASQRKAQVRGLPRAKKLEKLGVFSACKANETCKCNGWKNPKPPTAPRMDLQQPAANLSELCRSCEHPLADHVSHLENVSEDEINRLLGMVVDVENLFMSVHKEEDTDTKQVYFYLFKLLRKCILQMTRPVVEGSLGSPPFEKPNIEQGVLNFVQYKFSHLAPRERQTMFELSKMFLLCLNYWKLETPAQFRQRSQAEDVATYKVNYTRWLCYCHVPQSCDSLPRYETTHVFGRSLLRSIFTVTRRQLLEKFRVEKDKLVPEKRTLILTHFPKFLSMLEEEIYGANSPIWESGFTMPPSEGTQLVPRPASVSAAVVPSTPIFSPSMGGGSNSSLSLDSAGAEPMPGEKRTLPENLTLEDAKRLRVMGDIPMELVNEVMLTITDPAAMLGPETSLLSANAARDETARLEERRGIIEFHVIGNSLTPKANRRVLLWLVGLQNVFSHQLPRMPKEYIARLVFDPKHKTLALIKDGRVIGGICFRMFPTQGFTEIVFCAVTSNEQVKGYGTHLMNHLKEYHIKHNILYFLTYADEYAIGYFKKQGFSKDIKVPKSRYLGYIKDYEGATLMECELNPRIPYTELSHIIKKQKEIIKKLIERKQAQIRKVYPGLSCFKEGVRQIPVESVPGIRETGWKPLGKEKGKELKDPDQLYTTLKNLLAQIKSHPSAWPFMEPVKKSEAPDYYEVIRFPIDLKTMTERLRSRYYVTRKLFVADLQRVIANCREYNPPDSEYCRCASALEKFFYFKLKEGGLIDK
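ThioGlo1-coupled HAT assay: 20nM GCN5L2, 70uM acetyl-CoA, 75uM H3(1-25) peptide, pH 7.5. Fluorescence read at 340/540nm at start and after 20 min at room temperature.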
The depositor's hits bear a star; ? = inconclusive; / = no result given; & = joins results of further samples; [ ] = remark or other dose. Calls follow the shape of the dose curve; as a rule, active = well fitted curve in the direction sought with a large enough effect; inconclusive = small, poorly fitted or top-dose-only effect, or another doubt; inactive = no such curve, though single readings can be large; an effect the other way counts as inactive or inconclusive. Unless noted, % is scaled to controls: 0 for no effect and ±100 for the full control effect; potency is read from the fitted curve at half-maximal effect.

N370S GC	KAT2A inh	mol
11.7%	0.8%	O=C(CSc1nncn1-c1ccccc1)NCc1cccs1
1.2%	-4.2%	Cc1noc(C)c1CSCC(=O)Nc1nc2ccccc2s1
-11.3%	1.1%	O=C(Cn1nnc(-c2cccs2)n1)NCCc1ccccc1
?	-21.7%	COC(=O)C1=CNC=C(C(=O)OC)C1c1ccc(C(=O)OC)cc1
11.2%	-0.5%	COc1ccc(CCNC(=O)c2ccc3nc4cc(Cl)ccc4c(=O)n3c2)cc1OC
11.2%	-8.9%	CCNC(=O)Nc1cc(OC)c(OC)cc1C(=O)O
9.8%	-9.4%	Cc1cnc(C)c(N2CCN(Cc3nc(-c4ccccc4)no3)CC2)n1
-1.1%	-28.5%	Cn1c(N)c(C(=O)Nc2cccc(Cl)c2)c(=O)n(C)c1=O
/	-3.8%	Cc1nn(-c2ccccc2)c(C)c1C(=O)OC(C)C(=O)Nc1ccc(C(N)=O)cc1 (stereo not drawn)
/	-2.7%	CCCOc1ccc(NC(=O)CC2C(=O)Nc3ccccc3N2CC(=O)N2CCCC2)cc1 (stereo not drawn)
-9.6%	-0.2%	N#CCCn1c(C(C#N)(CCC#N)CCC#N)nc2ccccc21
-9.2%	?	CS/C(N)=N/N=C/c1ccc([N+](=O)[O-])cc1
-14.2%	1.2%	COc1cccc(CC(=O)OCC(=O)Nc2c(C)nn(-c3ccccc3)c2C)c1
/	-0.3%	COc1cc(Cl)c(C)cc1NC(=O)Cn1ncc2c(=O)oc3ccccc3c21
/	-11.3%	O=C(Nc1onc2c1CCCC2)c1ccc(Cl)cc1
-9.4%	-0.2%	CCOC(=O)Cc1csc(NC(=O)CCc2ccc(S(=O)(=O)N3CCOCC3)cc2)n1
/	0.5%	Cc1ccc(C)c(NC(=O)CCNS(=O)(=O)c2ccc3c(c2)CCCC(=O)N3)c1
-14.1%&-21.1%	-6.8%&11.9%	CC(C)(C)NC(=O)[C@@H]1C[C@@H]2CCCC[C@@H]2CN1C[C@@H](O)[C@H](Cc1ccccc1)NC(=O)[C@H](CC(N)=O)NC(=O)c1ccc2ccccc2n1
0.7%	0.9%	COc1ccc(C2C(C(C)=O)=C(C)Nc3ncnn32)cc1OC (stereo not drawn)
?	0.7%	CCCNC(=O)c1cc2c(C(F)(F)F)nn(C)c2s1
-11.9%	-1.1%	COc1ccccc1CNC(=O)COC(=O)C1=COCCO1
/	-6.3%	Cc1ccc(C)c(NC(=O)CN2C(=O)NC(CCc3ccccc3)C2=O)c1 (stereo not drawn)
-0.6%	-3.3%	CCN(CC)CCNC(=O)C1c2ccccc2C(=O)N(C)C1c1cn(C)c2ccccc12 (stereo not drawn)
-25.7%	-9.3%	O=C(NCc1ccccc1Cl)C1CCN(S(=O)(=O)N2CCCCC2)CC1
25.5%	-17.9%	COc1ccccc1C(=O)COC(=O)c1cc([N+](=O)[O-])ccc1N1CCOCC1
-6.4%	-8.2%	O=S1(=O)CC/C(=N\Nc2ccccc2)c2ccsc21
/	-0.3%	CCc1nnc(NC(=O)c2oc3ccccc3c2COC(C)C)s1
13.8%	-4.2%	Cc1cc(C(=O)CSc2nn3c(=O)c(C(C)(C)C)nnc3s2)c(C)n1C1CC1
4.8%	-5.6%	CCSc1nnc(NC(=O)CSc2nnc(-c3c[nH]c4ccccc34)n2C)s1
13.8%[12.8 µM]	/	COC(=O)C1=C(C(=O)OC)[C@@H]2N(Cc3ccccc3)c3ccccc3[C@@]23C[C@@H](C(=O)OC)N(S(=O)(=O)c2ccc(C(F)(F)F)cc2)C3=N1
2.0%	-3.0%	CC(C)COC(=O)N1CCCC1C(=O)O (stereo not drawn)
/	2.3%	CNC(=O)c1[nH]cnc1C(=O)Nc1cccc(Cl)c1
-15.9%	-3.3%	CCOc1ccc(N2C(=O)C3CC(C)=C(C)CC3C2=O)c([N+](=O)[O-])c1 (stereo not drawn)
/	-1.4%	COCC(=O)N(C)C[C@H]1N[C@@](Cc2ccccc2)(C(=O)OC)[C@H]2C(=O)N(Cc3ccccc3)C(=O)[C@@H]12
-11.8%	-11.6%	CCCOc1ccc(NC(=O)C2CC(=O)N/C(=N/N=C(C)/C=C/c3ccc(N(C)C)cc3)S2)cc1 (stereo not drawn)
1.6%	-21.7%	CCCCCCSc1ccc([C@@H]2[C@H]3C(=O)N(C)C(=O)[C@H]3[C@]3(C(=O)OC)CCCCN23)cc1OC
15.3%	-1.9%	CCN1C(=O)NC(c2cc(Br)ccc2OC)C(C(=O)OC)=C1C (stereo not drawn)
9.3%	2.6%	O=C(Nc1cc(C(F)(F)F)ccc1N1CCOCC1)c1cncc(Br)c1
5.7%[2.35 µM]	-1.3%	CC1CN(CCC(=O)Nc2ccc3c(c2)CCC3)CC(C)O1 (stereo not drawn)
-6.9%	-15.0%&0.6%	O=C(c1ccc2c(=O)n(CCc3ccccc3)c(=O)[nH]c2c1)N1CCN(c2ccc(F)cc2)CC1
-2.1%	-0.4%	Cc1ccc(Oc2ncccc2C(=O)NCC(=O)O)cc1
14.7%	1.6%	Cc1cccn2c(=O)c3cc(C(=O)NCC4CCCO4)c(=N)n(CCc4ccccc4)c3nc12 (stereo not drawn)
1.4%	-1.3%	COc1cccc(Nc2nc(C)cc(C)c2C#N)c1
/	-4.8%	COc1ccc(NC(=O)COC(=O)c2cc(S(=O)(=O)N3CCCC3)ccc2O)cc1
8.8%	0.0%	CCCCCCCC(=O)N/N=C/c1cccnc1
5.3%	-7.3%	CCn1cc(C=C2C(=O)c3ccccc3C2=O)c2ccccc21
-5.1%	2.9%	O=C(NCCNCc1ccc(F)cc1)c1ccco1
-1.2%	-7.2%	O=c1oc(-c2cccs2)nc2scc(-c3cccs3)c12
1.4%	2.8%	Cc1ccc(NC(=O)CN2C(=S)NC(C)(C)CC2C)cc1Cl (stereo not drawn)
-28.7%	-12.9%	O=C(NNC(=O)c1ccc2[nH]c(=O)c(=O)[nH]c2c1)c1cccc(Br)c1
1.9%	2.4%	COc1ccc(S(=O)(=O)NNC(=O)c2cc3ccccc3o2)cc1
-10.4%	?	Cc1cc(C)c(S(=O)(=O)N2CCC(C(=O)NCc3ccncc3)CC2)c(C)c1
5.2%	-9.5%	CCOC(=O)c1cc(NC(=O)N2CCOCC2)c(C)nc1C
-4.7%	-14.2%	COc1cccc(CN(CC(=O)NCc2ccc(F)cc2)C(=O)c2ccco2)c1
/	-3.8%	CS(=O)(=O)Nc1ccccc1C(=O)OCC(=O)NC1CC1
5.0%	10.6%	CCOc1ccc(NS(=O)(=O)c2cc(NC(=O)CCC(=O)c3cccs3)ccc2Cl)cc1
-4.4%	-9.2%	O=C(NCC1CCCO1)c1cc2ccccc2cc1O (stereo not drawn)
-11.1%	-5.7%	Cc1cc(=O)oc2cc3oc(=O)cc(C)c3cc12
-15.2%	2.0%	Cc1ccc(CNC(=O)c2cc(COc3c(F)cccc3F)on2)s1
-14.2%	-2.7%	COc1ccc(C(CNC(=O)c2oc3ccc(F)cc3c2C)N2CCCCC2)cc1 (stereo not drawn)

Next results follow:
N370S GC	KAT2A inh	mol
-4.6%	-11.2%	CSc1ccc(S(=O)(=O)NC(C)c2ccccc2)cc1 (stereo not drawn)
3.2%	?	CCCS(=O)(=O)N1CCC(C(=O)N2CCc3ccccc3C2)CC1
/	2.0%	CC1CCc2c(sc(NC(=O)c3ccccc3)c2C(=O)Nc2ccccc2)C1 (stereo not drawn)
10.9%	-8.6%	Cc1cnc(C(=O)Nc2cccc3ncccc23)cn1
5.0%	-29.4%	COc1ccc(OCC(=O)N2CCOCC2)cc1
6.5%	-4.0%	Cc1nn(CC(O)Cn2c3c(c4ccccc42)CCN(C)C3=O)c(C)c1Br (stereo not drawn)
2.2%	-0.3%	CCN(C(=O)COC(=O)CNC(=O)C1CCCCC1)c1ccccc1
0.5%	-3.2%	Cn1cc(S(=O)(=O)Nc2ccc(Br)cc2F)c(=O)n(C)c1=O
1.4%	0.8%	Cc1cc(NC(=O)CCC(=O)N(CC(=O)NC2CCCC2)c2ccc(C)c(F)c2)no1
-0.2%	-24.1%	O=C(c1ccc(C(F)(F)F)cc1)C1CCCN(C(=O)c2cnccn2)C1 (stereo not drawn)
0.7%	?	O=C(N/N=C/c1ccccc1)C1CCCN1C(=O)c1cc([N+](=O)[O-])cc([N+](=O)[O-])c1 (stereo not drawn)
11.9%	-0.6%	Cc1ccc(C(=O)N/C(=C\c2cccc([N+](=O)[O-])c2)C(=O)OCN2C(=O)c3ccccc3C2=O)cc1
/	-0.7%	CC(C)(C)OC(=O)C[C@H]1C/C=C\C[C@@H](CC(=O)N[C@H](CO)Cc2ccccc2)C(=O)NC[C@@H](c2ccccc2)OC1=O
4.5%	0.5%	CCSc1nnc(NC(=O)C2CCN(S(=O)(=O)c3cc(C(F)(F)F)ccc3Cl)CC2)s1
5.3%	0.1%	COc1ccc(/C=N/NC(=O)c2ccn[nH]2)cc1Cn1nc(C)c([N+](=O)[O-])c1C

Record cards, from the list above.
COc1cccc(Nc2nc(C)cc(C)c2C#N)c1 is listed with N370S GC = 1.4%; KAT2A inh = -1.3%
O=C(c1ccc2c(=O)n(CCc3ccccc3)c(=O)[nH]c2c1)N1CCN(c2ccc(F)cc2)CC1 is listed with N370S GC = -6.9%; KAT2A inh = -15.0%&0.6%
CCCNC(=O)c1cc2c(C(F)(F)F)nn(C)c2s1 is listed with N370S GC = ?; KAT2A inh = 0.7%

The list goes on:
N370S GC	KAT2A inh	mol
28.4%	-11.1%	CCOc1ccccc1OCc1nn2c(-c3ccc(C)cc3)nnc2s1
/	-1.8%	CC1CCCCN1C(=O)CSc1n[nH]c(-c2ccccc2)n1 (stereo not drawn)
12.2%	-11.6%	O=[N+]([O-])c1ccc(N2CCN(C(=S)c3cccc([N+](=O)[O-])c3)CC2)cc1
-14.9%	-6.8%	Cc1c(CNCCC2=CCCCC2)c(C(=O)O)c(C)n1Cc1ccccc1
-1.7%	-4.6%	Cc1cccc(N2CCN(C(=O)Cc3ccccc3[N+](=O)[O-])CC2)c1C
14.2%	0.5%	O=C(C1=C[C@@H](c2coc3ccccc3c2=O)C[C@@H](OCc2ccc(CO)cc2)O1)N1CCN(Cc2ccccc2)CC1
3.7%	-6.7%	COc1ccccc1NC(=O)C(=O)N/N=C(\C)CC(=O)Nc1ccccn1
-3.7%	-1.1%	CC1(C)CC(=O)C(C=NCC2CCN(C(=S)Nc3ccccc3)CC2)=C(O)C1
4.0%	2.7%	CC(=O)N1C(C)c2ccccc2C(C)(C)CC12CCCCC2 (stereo not drawn)
-5.5%	0.0%	Cc1nn(-c2cc(N3CCOCC3)ccc2[N+](=O)[O-])c(=O)c2ccccc12
-0.4%	-4.1%[0.501 µM]	Cc1nn(Cc2ccc(Cl)cc2)c2sc(C(=O)OCC(N)=O)cc12
14.5%	-12.8%	CCOC(=O)[C@H]1[C@H]2COc3ccc(Br)cc3[C@@H]2N2C(=O)c3cc(F)c(F)cc3NC(=O)[C@@]12C
1.9%	-6.0%	O=C(COC(=O)c1cccnc1Nc1cccc(C(F)(F)F)c1)NCCN1C(=O)CSC1=O
3.3%	-3.8%	COc1ccc(OCc2cc(C(=O)N3CCCC(OC)C3)no2)c2ccccc12 (stereo not drawn)
/	-3.8%	Cc1ccccc1N1CCN(S(=O)(=O)c2nnc(NC(=O)c3ccccc3)s2)CC1

3 entries picked at random from the list so far:
N370S GC	KAT2A inh	mol
3.7%	-6.7%	COc1ccccc1NC(=O)C(=O)N/N=C(\C)CC(=O)Nc1ccccn1
-1.7%	-4.6%	Cc1cccc(N2CCN(C(=O)Cc3ccccc3[N+](=O)[O-])CC2)c1C
14.2%	0.5%	O=C(C1=C[C@@H](c2coc3ccccc3c2=O)C[C@@H](OCc2ccc(CO)cc2)O1)N1CCN(Cc2ccccc2)CC1

(cont.)
N370S GC	KAT2A inh	mol
1.7%	-15.9%	COc1ccccc1CNC(=O)c1cccc(S(=O)(=O)N2CCCC2)c1
-5.9%	-3.8%	CCSc1nnc(NC(=O)CSc2nc3c(cc2C#N)CCCC3)s1
/	-3.8%	Cc1cccc2nc(Cn3c(=O)n(-c4ccccc4)c(=O)c4c5c(sc43)CCC5)cc(=O)n12
0.9%	2.1%	CC(Nc1ccc(Cl)cc1)C(=O)NN (stereo not drawn)
-8.1%	-0.1%	Cc1nc(N2CCCCC2)sc1C(=O)c1cccc([N+](=O)[O-])c1
-3.0%	-3.2%	COCCNc1nc2c(c(=O)[nH]c(=O)n2C)n1CCCc1ccccc1
0.1%	?	Cc1ccc(C(=O)OCC(=O)N2CCC(c3ccccc3)=N2)c(C)c1
-0.5%	3.8%	CNC(=O)c1c[nH]c2ccc(S(=O)(=O)Nc3ccccc3F)cc2c1=O
6.7%	-1.8%	Cc1ccc(/C=N/c2sc3c(c2C#N)CCCCC3)o1
/	-11.1%	Cc1ccc(CN(Cc2ccco2)C(=O)c2ccc(Cl)cc2)o1
/	-2.2%	COc1ccc(C(=O)Nc2nnc(C)s2)cc1S(=O)(=O)N1CCOCC1
1.3%	-3.6%	O=C1CN(C(=O)CNCc2ccccc2Cl)c2ccccc2N1
2.0%	-5.3%	NC(=O)c1oc2ccccc2c1NC(=O)CCc1ccccc1
/	-5.7%	Cc1c(CNC2CCCCC2)c(C(=O)O)c(C)n1Cc1ccc(Cl)cc1
18.2%	1.3%	CCC(Sc1ccc(C(=O)O)cc1)C(=O)O (stereo not drawn)
-3.5%	-10.7%	CCOC(=O)C1CCCN(S(=O)(=O)Cc2ccc(Cl)cc2)C1 (stereo not drawn)

A portion of the library, and most or all hits are left out here.
